# Compound activity deposited in PubChem BioAssay by Broad Institute.
# FGF22 binding = binders of human FGF22 protein, primary screen, FGF22 synaptogenesis inhibitor project, biophysical, thermal shift, single point; actives 1.5% (n = 340,000); recombinant FGF22 thermal shift, SYPRO orange fluorescence; percent of sucrose octasulfate shift, DMSO zero; calls only at 9.99 µM; Fibroblast growth factor 22 (Homo sapiens), Q9HCT0;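 active = melting point raised past a set limit in the mean and every replicate; inconclusive = no clear call; three in four hits are not shown here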
# Target sequence (Q9HCT0 whole entry, looked up): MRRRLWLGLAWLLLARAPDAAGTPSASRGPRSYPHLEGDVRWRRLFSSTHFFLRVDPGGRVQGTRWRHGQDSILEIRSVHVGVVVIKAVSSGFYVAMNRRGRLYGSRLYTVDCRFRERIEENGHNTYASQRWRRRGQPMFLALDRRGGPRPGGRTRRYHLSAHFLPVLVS
# rRNA inh HTS = reduced GFP signal of wild-type E. coli, primary screen, bacterial rRNA inhibitor project, GFP/RFP fluorescence, OD600, single point | actives 1.6% (n = 350,000) | AID 720706, 2013 | GFP signal change (wild-type ribosome), % (no concentration beside the values) | E. coli WT GFP vs humanized-ribosome RFP mutants, 24 h; stronger effect = lower value; DMSO median 0, no signal -100;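 active = significant combined selectivity score with lowered wild-type GFP, culture density cut under 30%, mutant RFP and density less affected; inactive = any of these conditions unmet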; also: one replicate is shown; some compounds called inactive have numbers as strong as hits
# ALR inh = inhibitors of human ALR sulfhydryl oxidase, primary screen, biochemical, H2O2 detection, HRP-luminol luminescence, single point | FAD-linked sulfhydryl oxidase ALR (Homo sapiens), P55789 | purified ALR, DTT oxidation | inhibition, % (no concentration beside the values) | actives 3.8% (n = 290,000);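 active = mean and each replicate at 75% or more; inconclusive = only one of the two met; inactive = neither met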;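 also: stock transfer was 7.5 nL into about 7.5 µL; 0% = neutral wells and 100% = wells with inactivated enzyme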
# Target sequence (P55789 whole entry, looked up): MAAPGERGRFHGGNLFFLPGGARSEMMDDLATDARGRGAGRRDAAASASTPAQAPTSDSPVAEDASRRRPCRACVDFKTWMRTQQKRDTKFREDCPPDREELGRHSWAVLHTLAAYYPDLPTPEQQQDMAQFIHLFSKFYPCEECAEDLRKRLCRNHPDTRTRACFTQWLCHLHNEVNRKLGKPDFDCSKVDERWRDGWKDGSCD
# RanGTP-Imp inh = inhibitors of RanGTP-importin-beta interaction, primary screen, biochemical, FRET, CFP-Ran, YFP-importin-beta, homogeneous; actives 1.1% (n = 300,000); inhibition, % (no concentration beside the values); cell-free CFP-Ran/YFP-importin-beta FRET ratio; AID 2216, 2009; Ran GTPase (GTP-bound) - importin-beta complex;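 active = most replicates above 15%; inconclusive = exactly half above 15%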;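 also: 0% = DMSO wells and 100% = Ran loaded with GDP instead of GTP; wells of about 40 µL received 100 nL stock; the first replicate is given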
# Beta cell apopt = inhibitors of cytokine-induced beta cell apoptosis, primary screen, luminescence; INS-1E cytokine-induced death, ATP luminescence, 48 h; percent of positive-control rescue, neutral wells zero; AID 435005, 2010; actives 0.8% (n = 300,000); protection from apoptosis, % (test concentration not listed);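 active = all replicates at 75% or more, or half of them and the mean; inconclusive = half reach 75% but not the mean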;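 also: 0% = cytokine-treated negative control wells and 100% = positive control rescue; higher means more ATP so stronger rescue from cytokine killing; wells of about 40 µL received 100 nL stock; the first replicate is given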
# Calb FLC = C. albicans growth inhibition with fluconazole, primary screen, CaCi-2 strain, Alamar Blue fluorescence | growth inhibition, % (concentration not given with the values) | C. albicans CaCi-2 (fluconazole-resistant clinical isolate) + fluconazole, 48 h | actives 0.57% (n = 300,000) | AID 1979, 2009;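 active = most replicates above 75%; inconclusive = exactly half above 75%; inactive = most below 75%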;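 also: all wells also contain fluconazole at 8 µg/ml as a sub-toxic cotreatment; 0% = median of DMSO wells and 100% = median of geldanamycin control wells; wells of about 8 µL received 7.5 nL stock; the first replicate is given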
# T cruzi inh = inhibitors of intracellular T. cruzi growth, primary screen, luminescence, NIH3T3 host cells; inhibition, % (no concentration beside the values); actives 1.4% (n = 300,000); T. cruzi beta-gal in NIH3T3, 90 h;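 active = mean inhibition across valid replicates above about 55%, limit read from the data; inconclusive = mean below that limit but half or more replicates reach it; inactive = mean below it, under half of replicates reach it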;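 also: signal also drops with host cell toxicity which is not excluded here; 0% = plate median of DMSO wells and 100% = zero luminescence signal; higher percent means less beta-gal luminescence so fewer parasites; stock transfer was 50 nL into about 50 µL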
# MLL AF4-AF9 inh = inhibitors of AF4 peptide binding to AF9, primary screen, biochemical, AlphaScreen, biotin-AF4 peptide, FLAG-AF9, single point | Protein AF-9 (Homo sapiens), P42568 | actives 0.47% (n = 350,000) | inhibition, % at 10 µM;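 active = every replicate reaching a set inhibition limit, whatever the replicate mean, cut at about 25% in these data; inconclusive = mean inhibition reaches that limit but some replicates miss it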;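 also: 0% = plate neutral control median and 100% = total signal loss; the record names both 10 and 1 µM as test concentration; the first replicate is given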
# Target sequence (P42568 whole entry, looked up): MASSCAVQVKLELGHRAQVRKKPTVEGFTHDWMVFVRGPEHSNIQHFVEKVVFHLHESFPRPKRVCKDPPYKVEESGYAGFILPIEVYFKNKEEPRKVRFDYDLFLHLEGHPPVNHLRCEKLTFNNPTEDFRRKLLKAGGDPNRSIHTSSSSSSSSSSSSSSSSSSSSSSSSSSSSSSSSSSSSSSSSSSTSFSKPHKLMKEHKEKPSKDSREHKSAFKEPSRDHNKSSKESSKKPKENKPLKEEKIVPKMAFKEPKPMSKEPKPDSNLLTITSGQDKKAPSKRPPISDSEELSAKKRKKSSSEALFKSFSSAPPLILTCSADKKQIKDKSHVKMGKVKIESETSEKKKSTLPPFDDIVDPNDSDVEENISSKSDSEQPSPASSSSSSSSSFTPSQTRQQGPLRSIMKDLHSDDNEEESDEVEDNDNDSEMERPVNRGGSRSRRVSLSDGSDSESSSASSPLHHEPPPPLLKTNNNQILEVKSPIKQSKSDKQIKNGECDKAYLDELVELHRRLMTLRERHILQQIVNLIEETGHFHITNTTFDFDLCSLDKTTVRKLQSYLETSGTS
# rRNA inh HTS OD600 = further read-out of rRNA inh HTS, marked with its call; OD600 change, %; measured here: OD600 growth;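 optical density of the mix in the first replicate; 0 = DMSO median and -100 = no signal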
# rRNA inh HTS RFP = second read-out of rRNA inh HTS, no call of its own (marks repeat the call); RFP signal change, %; measured here: RFP humanized mutant strains;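 first replicate; 0 = DMSO median and -100 = no signal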
# * = called active by the depositor; i = inactive; ? = inconclusive; . = not tested or not shown; + = active, no number.
cpd	SMILES	FGF22 binding	rRNA inh HTS	rRNA inh HTS OD600	rRNA inh HTS RFP	ALR inh
1	Cc1ccc(C(=O)NCc2ccc3c(c2)OCO3)cc1N1CCCC1=O	i	4	4	-0.4	-14
2	CC(=O)Nc1ccc(S(=O)(=O)NCCSCc2cccc(Cl)c2)cc1	i	-44	-62	-16	-24
3	CC(C(=O)Nc1ccccc1)N(C)CCOc1ccccc1 (stereo not drawn)	i	-5	-14	2.6	-19
4	Cc1cccc(OCC(=O)Nc2nc3ccc([N+](=O)[O-])cc3s2)c1C	.	.	.	.	-7
5	O=C(NCCCN1CCCC1=O)NC1CCCCC1	.	.	.	.	-3
6	O=C(NC1CCN(C(=S)NCc2ccco2)CC1)C12CC3CC(CC(C3)C1)C2	.	.	.	.	.
7	O=C(N/N=C/c1ccc2cccnc2c1)c1ccco1	i	12	20	4.7	-2
8	O=C(Nc1cccnc1)c1cc(-c2ccco2)on1	.	.	.	.	-6
9	Cc1nc2nc(CSc3ccc(Cl)cc3)cc(=O)n2[nH]1	.	.	.	.	-1
10	C=CCN(C(=O)Nc1ccccc1)C1CC(=O)N(c2ccc(OC)cc2)C1=O (stereo not drawn)	.	.	.	.	-10
11	CCOC(=O)c1ccc2[nH]c3ccccc3c2c1	i	-17	-3	-4.5	0
12	CCOc1ccc2c(c1)-c1c(ssc1=S)C(C)(C)N2C(=O)c1ccco1	.	.	.	.	4

cpd	RanGTP-Imp inh	Beta cell apopt	Calb FLC	T cruzi inh	MLL AF4-AF9 inh
1	3.2	-6	4	-20	-0.5
2	-2.5	7	-8	2	2.5
3	2.9	-1	-6	-3	-2.2
4	-0.1	-2	-16	-13	.
5	2.6	.	-9	-13	.
6	4.7	1	0	13	.
7	-3.6	-1	2	-17	-5.0
8	2.1	-6	?	0	.
9	-0.6	-1	-37	-2	.
10	2.8	1	0	-24	.
11	-0.9	-5	-1	13	-1.6
12	-1.2	11	8	-19	.

# Two entries picked at random from those above:
cpd	SMILES	FGF22 binding	rRNA inh HTS	rRNA inh HTS OD600	rRNA inh HTS RFP	ALR inh
6	O=C(NC1CCN(C(=S)NCc2ccco2)CC1)C12CC3CC(CC(C3)C1)C2	.	.	.	.	.
9	Cc1nc2nc(CSc3ccc(Cl)cc3)cc(=O)n2[nH]1	.	.	.	.	-1

cpd	RanGTP-Imp inh	Beta cell apopt	Calb FLC	T cruzi inh	MLL AF4-AF9 inh
6	4.7	1	0	13	.
9	-0.6	-1	-37	-2	.

# The listing picks up, starting 3 compounds before the break.
cpd	SMILES	FGF22 binding	rRNA inh HTS	rRNA inh HTS OD600	rRNA inh HTS RFP	ALR inh
10	C=CCN(C(=O)Nc1ccccc1)C1CC(=O)N(c2ccc(OC)cc2)C1=O (stereo not drawn)	.	.	.	.	-10
11	CCOC(=O)c1ccc2[nH]c3ccccc3c2c1	i	-17	-3	-4.5	0
12	CCOc1ccc2c(c1)-c1c(ssc1=S)C(C)(C)N2C(=O)c1ccco1	.	.	.	.	4
13	NC(=O)C1CCN(S(=O)(=O)c2cccc(S(=O)(=O)N3CCCCC3)c2)CC1	.	-12	-14	-4.1	-1
14	Fc1ccccc1Cn1nnc2c(NCCc3ccccn3)ncnc21	.	.	.	.	-13
15	COc1ccc(NC(=O)c2cc(CN3C(=O)c4ccccc4C3=O)ccc2OC)cn1	.	.	.	.	-29
16	O=C(O)Cn1cc(/C=C/[N+](=O)[O-])c2ccccc21	i	20	10	4.0	-1
17	CCCc1nc(SCC(=O)Nc2cc(C)on2)c2c(=O)n(C)c(=O)n(C)c2n1	i	0	6	-6.2	-5
18	CCCn1nnnc1NC(=O)COc1ccc(Cl)cc1C	.	.	.	.	-16
19	CNC(=S)N(Cc1ccccc1)Cc1cccnc1	i	2	4	-0.6	1
20	Cc1cc(C(=O)OCC(=O)c2ccc(Cl)c([N+](=O)[O-])c2)c2cccc(C)c2n1	i	5	13	2.5	-36
21	COc1ccc(NC(=O)CSc2ncc(-c3ccc(F)cc3)n2Cc2ccco2)cc1	.	.	.	.	-8
22	COC(=O)c1ccc(S(=O)(=O)NCc2ccccn2)n1C	i	11	3	0.0	-3
23	CN(c1ccccc1)S(=O)(=O)c1ccc2ccccc2c1	i	-29	-27	-3.9	-1
24	Cc1cc(Cl)ccc1OCC(=O)NNC(=O)c1cccs1	i	-17	-8	0.0	-2

cpd	RanGTP-Imp inh	Beta cell apopt	Calb FLC	T cruzi inh	MLL AF4-AF9 inh
10	2.8	1	0	-24	.
11	-0.9	-5	-1	13	-1.6
12	-1.2	11	8	-19	.
13	2.6	-7	6	-14	.
14	-1.2	-5	3	3	.
15	-0.3	-3	8	5	.
16	-0.8	-12	3	-12	0.1
17	-2.3	0	-4	-7	-2.9
18	5.4	-1	15	-23	.
19	6.9	-12	5	-9	-2.0
20	3.8	2	-7	-15	-21
21	-3.0	-2	-18	5	.
22	-1.1	-4	-1	-5	-3.6
23	?	.	6	7	0.2
24	3.6	0	5	-4	-0.7

# (continued)
cpd	SMILES	FGF22 binding	rRNA inh HTS	rRNA inh HTS OD600	rRNA inh HTS RFP	ALR inh
25	O=C(NCC1CCCO1)C1CC(=O)N(c2cccc(Cl)c2)C1 (stereo not drawn)	i	6	8	-0.1	-6
26	O=C(CCc1nc(-c2ccc(Cl)cc2)no1)NC1CCCCC1	i	3	4	-0.9	-4
27	OC(COCc1ccc(Cl)cc1)CN1CCN(c2ccccn2)CC1 (stereo not drawn)	.	.	.	.	-8
28	COc1ccc(CCNC(=O)C(NS(=O)(=O)c2ccc3c(c2)CCN3C(C)=O)C(C)C)cc1OC (stereo not drawn)	.	.	.	.	7
29	O=C(NCCN1CCCCC1)c1cccc2c1C(=O)c1ccc(N3CCCC3)cc1S2(=O)=O	i	2	2	-2.1	9
30	O=C1/C(=C/c2cccnc2)Oc2cc(OS(=O)(=O)c3ccccc3)ccc21	.	.	.	.	0
31	CC(C)COP(=O)(OCC(C)C)C(Nc1ccccc1)c1ccc2c(c1)OCO2 (stereo not drawn)	.	.	.	.	-7
32	CC(C)C[C@@]12C(=O)N(c3cccc(Cl)c3)C(=O)N1[C@H](c1ccc(Cl)cc1)[C@@H]1C(=O)N(C3CCCCC3)C(=O)[C@@H]12	+	3	9	-0.2	-6
33	COc1cc2nc(NCC3CCCO3)n3nc(-c4cccnc4)nc3c2cc1OC (stereo not drawn)	.	.	.	.	-1
34	COc1ccc(SCCN2CC[C@@H](NC(=O)OCc3ccccc3)CCC2=O)cc1	i	-19	-31	9.9	-5
35	CCOC(=O)c1sc(=S)n(C)c1NC(=O)c1ccccc1Cl	i	-29	-27	-5.2	51
36	COCCOc1cc(-n2cccc2)c(Cl)cc1Cl	i	-31	-51	-13	-4

cpd	RanGTP-Imp inh	Beta cell apopt	Calb FLC	T cruzi inh	MLL AF4-AF9 inh
25	4.7	.	5	-17	-1.7
26	-9.3	-3	-16	0	-1.1
27	3.0	1	29	2	.
28	-1.0	-1	?	-5	.
29	.	-9	.	.	-4.3
30	-6.6	3	-13	-2	.
31	3.6	-1	0	21	.
32	-3.0	13	5	27	-31
33	1.6	2	0	13	.
34	.	0	.	.	-7.3
35	-1.9	-1	-2	-3	-3.7
36	-1.2	1	?	7	0.8

# Remaining list, next part
cpd	SMILES	FGF22 binding	rRNA inh HTS	rRNA inh HTS OD600	rRNA inh HTS RFP	ALR inh
37	COC(=O)c1sc(C(=O)OC)c(C(=O)OC)c1C(=O)OC	.	.	.	.	-4
38	COc1cc2c(cc1OC)CN(C(C)C(=O)Nc1ccc(NC(C)=O)cc1)CC2 (stereo not drawn)	.	.	.	.	-18
39	O=c1c2ccccc2cnn1CCOc1cccc(Br)c1	i	0	-1	-0.3	1
40	Nc1nnc(SCC(=O)OCc2ccccc2)s1	i	11	-1	0.6	8
41	O=C1CS/C(=N/N=C/c2ccncc2)N1	i	5	7	-3.0	1
42	CC(NC(=O)c1ccc(S(=O)(=O)Nc2ccccc2Cl)cc1)c1ccncc1 (stereo not drawn)	i	2	-2	-1.7	-4
43	CC(C)N1CCN(Cc2ccc(Sc3nncn3C)o2)CC1CCO (stereo not drawn)	.	15	12	4.9	0
44	O=C1NC2(CCCC2)N=C1c1ccc(Cl)cc1	i	7	6	-0.8	-1
45	COc1ccc(CNC(=O)C2CCN(S(=O)(=O)c3cccnc3)CC2)cc1	i	3	11	-0.2	-8
46	NS(=O)(=O)c1ccc(CCNC(=O)CCCn2ncn3c(cc4occc43)c2=O)cc1	i	10	8	-0.4	-4
47	O=C(COc1ccc2ccccc2c1Br)NNC(=O)Nc1ccccc1	.	.	.	.	-4
48	CCOC(=O)COc1ccc(C(=O)NC2CCCCC2)cc1	i	.	.	.	-3

cpd	RanGTP-Imp inh	Beta cell apopt	Calb FLC	T cruzi inh	MLL AF4-AF9 inh
37	-4.0	-8	-5	-18	.
38	0.4	-6	1	-6	.
39	?	2	-15	3	-1.6
40	?	-9	-6	-9	5.3
41	2.2	1	-3	-9	.
42	.	-3	.	.	-2.3
43	-2.9	-4	0	-11	-8.8
44	?	-1	-11	-26	0.9
45	2.6	-4	-23	-7	1.3
46	-2.1	-5	32	-6	-0.2
47	-7.6	-1	3	1	.
48	1.9	1	4	-7	-2.0

# New compounds follow:
cpd	SMILES	FGF22 binding	rRNA inh HTS	rRNA inh HTS OD600	rRNA inh HTS RFP	ALR inh
49	CC(C(=O)Nc1ccc2c(c1)OCO2)N1CCN(C)CC1 (stereo not drawn)	i	8	5	-0.8	-10
50	COc1cc2c(cc1OC)C(c1ccccc1)N(C(=O)C(C)(C)C)CC2 (stereo not drawn)	i	7	5	0.7	.
51	NC(=O)c1ccc(Cc2ncc(C(F)(F)F)cc2Cl)s1	.	.	.	.	1
52	Cc1ccc(C2CC(=O)Nc3cc4c(cc32)OCO4)o1 (stereo not drawn)	.	.	.	.	-1
53	Cc1ccc2c(c1)nnn2C1CCN(C(=O)c2cccs2)CC1	.	.	.	.	.
54	O=c1oc2ccccc2cc1-c1nc2ccccc2o1	i	-12	-18	-14	-3
55	COC(=O)c1cc(S(=O)(=O)N2CCN(c3ccc(C(C)=O)cc3)CC2)cn1C	i	18	21	2.2	7

cpd	RanGTP-Imp inh	Beta cell apopt	Calb FLC	T cruzi inh	MLL AF4-AF9 inh
49	1.6	0	4	21	0.3
50	-1.6	.	-5	4	-2.2
51	-1.1	-2	28	0	.
52	-1.4	-6	?	1	.
53	-2.6	0	14	5	.
54	.	3	-37	-6	-5.4
55	0.5	3	-4	-4	-3.5

# Not all compounds are listed, so the mix of outcomes need not match the whole.
